# Six1-Eya2 blk – blocks human Six1 binding to Eya2; Q15475+O00167; AlphaScreen GST-Six1/His-Eya2 binding, biochemical; stronger effect = lower value; control for the full effect not named in the record; 360,000 compounds, 0.56% hits; activity change, % (concentration not given with the values); in the data active = activity change below about -65%; inconclusive = about -30% to -65%; inactive = above about -30%; also: % is scaled to controls: 0 for no effect and ±100 for the full control effect
#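 Homogeneous AlphaScreen proximity assay pairing GST-Six1 with His-tagged Eya2 (added as 5X mix: 250 nM and 500 nM) in 50 mM Tris pH 8.0, 300 mM NaCl, 1 mM TCEP. Glutathione donor and nickel acceptor beads; 1 h, 37 °C, dark.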
# TRPML1 ag – human mucolipin-1 channel agonism. activation, % (concentration not given with the values). TRPML1-expressing cells, Ca2+ dye fluorescence, FDSS; host cell line not named in the record; reference of the full effect not given here. AID 624414. 410,000 compounds, 0.12% hits. Q9GZU1; in the data active = activation above about 50%; inconclusive = about 30% to 50%; inactive = below about 30%; also: 0% is about no effect; the text of the record puts the active cut at 80%
# Target sequence (Q9GZU1 whole entry, looked up): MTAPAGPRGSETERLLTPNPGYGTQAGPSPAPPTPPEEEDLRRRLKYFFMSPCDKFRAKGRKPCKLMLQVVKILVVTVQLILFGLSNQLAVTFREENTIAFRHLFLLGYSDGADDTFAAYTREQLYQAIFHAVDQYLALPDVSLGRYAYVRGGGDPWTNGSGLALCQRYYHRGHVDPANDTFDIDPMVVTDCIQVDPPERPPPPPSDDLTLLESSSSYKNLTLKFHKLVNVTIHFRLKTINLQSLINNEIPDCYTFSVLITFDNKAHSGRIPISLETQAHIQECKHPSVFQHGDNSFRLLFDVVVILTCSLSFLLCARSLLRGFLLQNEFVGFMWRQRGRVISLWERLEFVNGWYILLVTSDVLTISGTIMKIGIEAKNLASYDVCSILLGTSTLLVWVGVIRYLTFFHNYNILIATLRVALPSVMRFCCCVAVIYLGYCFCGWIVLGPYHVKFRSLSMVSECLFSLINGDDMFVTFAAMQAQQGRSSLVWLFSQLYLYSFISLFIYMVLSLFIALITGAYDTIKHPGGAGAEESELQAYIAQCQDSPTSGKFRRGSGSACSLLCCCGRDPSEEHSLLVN
#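 Agonist activity was taken from a 110 s kinetic Ca2+ dye read on the FDSS after pinning compounds onto TRPML1-DL cells. The cells were seeded at 1,500/well with Tet inducer, incubated about 16 h, then dye-loaded at room temperature.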
# CtBP-E1A blk – inhibitors of CtBP/E1A interaction | AlphaScreen GST-E1A/His-CtBP binding, 1536-well; stronger effect = lower value; control for the full effect not named in the record | activity change, % (test concentration not listed) | 340,000 compounds, 0.49% hits | AID 651724; in the data active means activity change below about -65%; inconclusive means about -30% to -65%; inactive means above about -30%; also: % is scaled to controls: 0 for no effect and ±100 for the full control effect
#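 Homogeneous bead-based format: GST-tagged E1A captured on glutathione donor beads, His-tagged CtBP on nickel acceptor beads; compounds precede bead addition by 2 h at 37 °C.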
# PINK1 modulator – changes PINK1 expression; PINK1 immunofluorescence, high-content cytometry, 24 h; Potency, µM (highest dose often 76.6 µM), without a hit: top-dose activation (PINK1 increase), actives largely listed as activators; 410,000 compounds, 0.2% hits; active = well fitted activation curve with a large enough effect; inconclusive = small, poorly fitted or top-dose-only effect; inactive = flat fitted curve, though single readings scatter; cell line not stated here;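 also: potency is read from the fitted curve at half-maximal effect; % of control where 0% means no effect; nearly all actives have a fitted effect of over 65% in size; a mitochondrial uncoupler was the plate control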
#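 PINK1 protein level read as immunofluorescence by microplate cytometer in a fixed, stained stable cell line after 24 h exposure to five compound concentrations, with CCCP as control.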
# D2 ag – activates the human D2 dopamine receptor. 360,000 compounds, 0.084% hits. AID 624465. activation, % (no concentration beside the values). DiscoveRx PathHunter D2 beta-arrestin, luminescence, 90 min; 100% = 57 uM dopamine signal. P14416; in the data active = activation above about 40%; inconclusive = about 15% to 40%; inactive = below about 15%; also: compound concentration not given in the record; the text of the record calls up to 30% inactive
# Target sequence (P14416 whole entry, looked up): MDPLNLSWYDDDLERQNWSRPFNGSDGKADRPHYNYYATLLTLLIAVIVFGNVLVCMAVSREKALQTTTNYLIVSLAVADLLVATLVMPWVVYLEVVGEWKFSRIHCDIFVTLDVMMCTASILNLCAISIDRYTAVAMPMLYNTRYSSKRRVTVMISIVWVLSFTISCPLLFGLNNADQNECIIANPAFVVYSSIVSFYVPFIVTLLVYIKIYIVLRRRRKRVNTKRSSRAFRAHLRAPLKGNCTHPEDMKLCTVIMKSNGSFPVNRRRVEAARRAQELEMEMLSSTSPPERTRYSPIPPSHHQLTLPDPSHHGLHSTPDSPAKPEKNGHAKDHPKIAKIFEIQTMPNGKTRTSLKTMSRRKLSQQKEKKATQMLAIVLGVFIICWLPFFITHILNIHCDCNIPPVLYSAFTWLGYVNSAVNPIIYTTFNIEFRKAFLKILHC
#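 Agonist mode: compounds alone added to overnight-plated D2 PathHunter cells for 90 min at 37 C, with 57 uM final dopamine (EC100) defining full response. Beta-arrestin recruitment detected by chemiluminescent reagent, read after 1 h at ambient temperature.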
# TRPML1 inh – human mucolipin-1 channel inhibition; 390,000 compounds, 0.02% hits; TRPML1-inducible cells, Ca2+ dye fluorescence, FDSS; stronger effect = lower value; inhibition of EC80 agonist-evoked calcium signal; activity change, negative = inhibition, % (concentration not given with the values); AID 624415; in the data active means activity change below about -50%; inconclusive means about -30% to -50%; inactive means above about -30%;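 also: stimulus is agonist 54-4 at its EC80 concentration; % is scaled to controls: 0 for no effect and ±100 for the full control effect; the text of the record puts the active cut at -80%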
#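 Calcium fluorescence in TRPML1-DL cells induced overnight with Tet: a 110 s read after compound pin addition, then a 110 s antagonist read after challenge with 54-4 at 4 uM final (EC80).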
# Numbers without * were called inactive; ? = inconclusive; nt = not tested or not shown; & = joins results of further samples; [ ] = remark or other dose.
SMILES,Six1-Eya2 blk,TRPML1 ag,CtBP-E1A blk,PINK1 modulator,D2 ag,TRPML1 inh
CC(=O)c1ccc(N2CCN(C(=O)C3CCCN3S(=O)(=O)c3cccc4nsnc34)CC2)cc1 (configuration not stated),-1.3,0.2,1.4,1.0%,-3.2,-10.7
COc1cccc(CNC(=O)c2oc3ccc4c(c3c2C)C(=O)CC(C)(C)O4)c1OC,nt,4.4,nt,1.2%,nt,-6.8
COc1ccc(NC(=O)CN(C)S(=O)(=O)c2cnc[nH]2)cc1,4.4,-0.2&0.0,-2.5,-0.3%&-1.7%,-0.8,15.6&5.5
COc1cccc(OCC(O)CN2CCN(C)CC2)c1 (configuration not stated),14.0,-0.7,3.8,1.3%,-2.6,-6.0
Cn1ccnc1C1CCCCN1C(=O)c1cc(COc2ccc(F)cc2F)on1 (configuration not stated),6.7,0.8,1.2,-1.0%,-0.8,0.0
Cc1ccc(C)c(NC(=O)C(C)n2c(=O)cc(C(F)(F)F)c3c(C)nn(C)c32)c1 (configuration not stated),nt,-0.7,nt,2.7%,nt,-4.0
O=C(c1ccc(CS(=O)Cc2cccc(Cl)c2)o1)N1CCN(c2ccc(F)cc2)CC1 (configuration not stated),-6.9,0.5,-1.1,1.5%,-1.0,-7.0
CC(=O)Nc1nc(C)c(Cc2ccccc2)c(=O)[nH]1,4.4,-1.2,-10.0,1.0%,-2.9,3.7
Cc1ccc(N2CC(C(=O)Nc3nnc(SCc4cccnc4)s3)CC2=O)cc1 (configuration not stated),-6.8,-0.5,1.7,0.5%,-0.2,30.9
COc1ccc(-c2cn(CCC(=O)NCc3ccc(C)cc3)c(CCN)n2)cc1,-10.6,-0.1,nt,1.0%,-4.5,-18.0
COc1ccc(S(=O)(=O)N(CC(=O)N/N=C/c2cccs2)c2ccc(C)cc2)cc1OC,-23.0,0.3,-5.7,0.0%,-3.4,13.2
CN(C)CCNC(=O)c1onc(CSc2ccc(F)cc2)c1C(=O)NCCN(C)C,9.6,0.5,nt,-1.1%,-1.7,23.2
Cn1ncc(Br)c1C(=O)NC1CCCCCC1,3.3,0.1,2.0,-0.4%,3.5,24.4
CCn1nnc2cc(C(=O)N3CCC(C(=O)OC)CC3)ccc21,9.6,0.8,3.1,-1.1%,-1.7,13.1
O=C(NCc1ccon1)C1CCC(=O)N(Cc2cccc(C(F)(F)F)c2)C1 (configuration not stated),-3.2,0.5,nt,0.9%,1.2,?
CN1CCN(C(=O)c2cc3c(c(-c4cccc(-c5cccnc5)c4)n2)[C@@H](CCO)N(C(=O)CC2CC2)C3)CC1,-6.9,-0.5,-5.6,-0.6%,nt,nt
CCOc1ccc(Br)cc1C(=O)N/N=C/c1ccc([N+](=O)[O-])cc1,0.1,1.6,-1.0,-1.9%,3.2,-17.4
COc1ccc(NC(=O)CN(C)C(=O)CCC2CCCC2)cc1,4.1,0.4,2.1,2.2%,-0.6,1.3
Cc1ccc(S(=O)(=O)N/N=C\c2cn(-c3ccccc3)nc2-c2ccccc2)cc1,-7.9,0.5,7.6,nt,-1.1,-2.7
c1ccc(-c2ccc(-c3ccccn3)s2)nc1,15.4,1.4,2.4,0.8%,-1.7,7.6
COC(=O)c1cc2oc(C)cc2n1Cc1ccc(Br)cc1F,nt,-0.2,nt,2.8%,nt,1.9
Cc1ccc(CSCC(=O)N2CCCC2)cc1,-1.8,0.2,3.3,5.5%,-4.6,38.7
O=C(NC(=S)NCc1ccccc1)C1CC1,0.6,1.3,6.5,0.8%,-5.4,-10.5
COc1ccc(C2CC(=O)Nc3ccccc3S2(=O)=O)cc1OC (configuration not stated),-0.8,-0.2,-2.2,0.2%,-3.1,9.4
Cc1ccc(/C=N/NC(=O)c2cccs2)s1,-3.8,1.5,nt,-0.1%,-4.5,-7.4

# For convenience, part of the list above.
SMILES,Six1-Eya2 blk,TRPML1 ag,CtBP-E1A blk,PINK1 modulator,D2 ag,TRPML1 inh
COC(=O)c1cc2oc(C)cc2n1Cc1ccc(Br)cc1F,nt,-0.2,nt,2.8%,nt,1.9
Cc1ccc(CSCC(=O)N2CCCC2)cc1,-1.8,0.2,3.3,5.5%,-4.6,38.7
O=C(NC(=S)NCc1ccccc1)C1CC1,0.6,1.3,6.5,0.8%,-5.4,-10.5
COc1ccc(C2CC(=O)Nc3ccccc3S2(=O)=O)cc1OC (configuration not stated),-0.8,-0.2,-2.2,0.2%,-3.1,9.4
Cc1ccc(/C=N/NC(=O)c2cccs2)s1,-3.8,1.5,nt,-0.1%,-4.5,-7.4

# Next section:
SMILES,Six1-Eya2 blk,TRPML1 ag,CtBP-E1A blk,PINK1 modulator,D2 ag,TRPML1 inh
COc1ccccc1NC(=O)Cn1c([N+](=O)[O-])cnc1C,6.9,-0.3,7.6,2.4%,1.0,-18.9
O=C(CN1CCSCC1)N/N=C/c1ccc(F)c(F)c1,1.7,0.2,0.6,12.7%[38.3 µM],-3.1,18.8
CC(C)C(NC(=O)c1ccccc1)C(=O)N/N=C\c1ccco1 (configuration not stated),6.8,-0.3,0.5,-1.1%,-1.0,-18.1
CCOC(=O)CCn1nc(-c2ccccc2)cc1N,0.0,0.0,-1.9,-0.4%,-3.6,1.9
CCC1CCC2(CC1)NC(=O)N(CC(=O)NCc1ccc(Cl)cc1)C2=O (configuration not stated),3.2,0.2,0.5,1.0%,-2.1,12.7
CC1CCCCC1NC(=O)CCS(=O)(=O)c1ccc2c(c1)NC(=O)CO2 (configuration not stated),5.3,-0.3,nt,0.0%,-2.9,10.8
CCOc1ccc(NC(=O)N(C)CCc2c(C)nn(C)c2C)cc1,nt,-0.9,nt,1.1%,nt,3.3
Nc1ccc2nc(CCCCc3nc4ccccc4[nH]3)[nH]c2c1,-16.5,0.0,-3.8,1.0%,3.3,-15.9
O=[N+]([O-])c1cccc(C2Nc3cccc4cccc(c34)N2)c1,-9.9,-0.8,4.7,0.8%,?,-30.0
Cc1cn2c(=O)cc(COc3ccc(NC(=O)c4ccc(C(C)(C)C)cc4)cc3)nc2s1,nt,-0.6,nt,6.7%,nt,-1.2
COc1ccc(CCNC(=O)CCC(=O)n2ncc3cc(C)ccc32)cc1OC,7.5,-0.3,-8.3,-0.9%,0.9,-10.2
O=C1C(=NO)C(c2ccccc2)Oc2ccccc21 (configuration not stated),-2.7,3.5,-2.5,12.9%,3.5,-8.6
S=C(NCCN1CCOCC1)N/N=C/c1cccs1,-0.9,0.8,nt,1.7%,-7.8,-21.3
O=C(Nc1cccnc1)c1cc(-c2ccccc2O)on1,4.1,-0.6,nt,5.4%,-2.5,1.0
O=C(CSc1ncnc2c1cnn2-c1ccccc1)NC1CCS(=O)(=O)C1 (configuration not stated),-5.0,-0.3,10.3,-1.8%,1.4,-3.4
O/N=C/c1ccc(OCc2ccccc2)c(Br)c1,-8.8,1.6,1.9,-1.5%,-3.1,45.6
COc1ccc(C2Nc3ccccc3C(=O)N2c2ccccc2)cc1CN1CCOCC1 (configuration not stated),-3.7,1.1,-1.6,-3.3%,3.5,-29.1
Cc1cccc(-c2cc3nc(C)c(C)c(NCCCn4ccnc4)n3n2)c1,-26.0,-0.9,-24.6,15.5%,1.2,10.9
CCOc1cc2c(cc1OCC)C(C(=O)O)C(c1cc(OC)c(OC)c(OC)c1)N(C)C2=O (configuration not stated),2.3,0.3,-0.1,-0.8%,-0.5,0.1
CC1=C(C(=O)OC(C)C)C(c2coc3ccccc3c2=O)C2=C(CCCC2=O)N1 (configuration not stated),-6.0,0.9,4.7,-0.7%,-1.6,5.1
O=C(c1ccoc1)N1CCC2(CC1)Oc1ccc(F)cc1C(=O)C21CC(c2ccccc2)=NO1 (configuration not stated),-5.2,0.1,?,-0.5%,1.9,2.0
CCCCOC(=O)c1ccc(NC(=O)C(=O)NCCN(C)C)cc1,-21.1,-0.5,nt,2.6%,-7.4,-0.1
Cc1ccc(CNC(=O)C2CCCN(S(C)(=O)=O)C2)cc1 (configuration not stated),0.2,0.4,-22.0,-1.9%[38.3 µM],-3.2,3.0
O=[N+]([O-])c1ccc(C(O)C(CO)NC(=S)Nc2ccccc2)cc1 (configuration not stated),-0.4,-0.7,5.4,1.9%,-10.7,17.3
Cc1nc2scc(C)n2c(=O)c1S(=O)(=O)NCCc1ccc(Cl)cc1,15.8,2.3,0.0,-0.1%,-1.1,7.4
# Following part
SMILES,Six1-Eya2 blk,TRPML1 ag,CtBP-E1A blk,PINK1 modulator,D2 ag,TRPML1 inh
COC(=O)c1ccc2c(CCO)c[nH]c2c1,16.9,0.0,nt,0.0%,2.7,25.3
Cc1ccccc1NS(=O)(=O)c1ccc(NC(=O)c2nc3ncccn3n2)cc1,-3.0,0.2,9.8,nt,0.3,-2.6
O=C(CSc1c2c(nc3ccccc13)CCCC2)NCc1ccco1,5.2,2.6,6.4,-1.1%,-0.1,11.5
CC(C)Cn1c(=S)[nH]c2cc(C(=O)NCc3ccccc3F)ccc2c1=O,2.2,0.8,-0.9,8.9%,-8.1,5.6
N#Cc1ccc(-c2ccc(OCC(O)CN3CCOCC3)cc2)cc1 (configuration not stated),2.0,1.3,5.2,-1.2%,2.9,-4.7
C(=N\N1CCN(Cc2ccccc2)CC1)/c1cccnc1,-12.1,0.4,0.5,5.5%,-2.1,-6.2
Nc1nc(-c2ccc([N+](=O)[O-])cc2)c(C(=O)Nc2ccc(Cl)cc2)s1,-20.0,0.7,-2.1,5.5%,-3.1,-8.0
O=C(Nc1ccc(Cl)cc1)N1CCC(c2nc(-c3ccc(F)cc3)no2)CC1,2.7,1.2,4.1,4.3%[38.3 µM],2.3,-2.5
C/C(=N\NC(=O)c1ccc(F)cc1)c1cccc(NC(=O)c2cccc(F)c2)c1,12.5,0.2,-1.3,1.6%,-6.0,-7.4
COc1ccc(CNC(=O)C2CCCN(c3nc4ccccc4o3)C2)c(OC)c1 (configuration not stated),-1.3,0.9,3.0,0.4%[38.3 µM],-2.2,-6.3
CN(Cc1ccccc1)C(=O)c1ccc(NC(=O)Cc2cccc(NC(=O)C3CCN(C(=O)C4CCCCC4)CC3)c2)cc1,-22.0,0.3,-13.2,0.6%,-0.3,5.1
CCCN1CN(Cc2ccco2)c2nc3ccccc3n2C1,-2.1,-0.3,0.5,11.3%,-0.5,29.7
Cc1cc(N2CCCCC2)nc(N2CCOCC2)n1,1.2,0.1,-0.8,-1.5%,-3.8,12.9
CC1CC(=O)NN=C1c1ccc(N)c([N+](=O)[O-])c1 (configuration not stated),-8.4,-0.1,-5.9,-0.2%,-4.1,-3.5
Cc1[nH]c(C)c(S(=O)(=O)N(C)Cc2ccccc2)c1C(=O)N1CCCC1,6.7,0.2,-5.2,0.2%,-8.0,-12.0
CCOc1c(Br)cc(/C=C2\N=C(C)OC2=O)cc1Br,2.3,2.6,5.2,-1.4%,-1.6,0.1

# Entries of single compounds as entered above. Order of values: Six1-Eya2 blk, TRPML1 ag, CtBP-E1A blk, PINK1 modulator, D2 ag, TRPML1 inh
# Listed for COC(=O)c1ccc2c(CCO)c[nH]c2c1 = 16.9, 0.0, nt, 0.0%, 2.7, 25.3
# Listed for N#Cc1ccc(-c2ccc(OCC(O)CN3CCOCC3)cc2)cc1 (configuration not stated) = 2.0, 1.3, 5.2, -1.2%, 2.9, -4.7
# Listed for CC1=C(C(=O)OC(C)C)C(c2coc3ccccc3c2=O)C2=C(CCCC2=O)N1 (configuration not stated) = -6.0, 0.9, 4.7, -0.7%, -1.6, 5.1
